Autofluor counter = flagged as autofluorescent in microsphere protease counterscreen; compound autofluorescence counterscreen, microsphere flow cytometry; hits give high values; hit rate 3.1% among 360,000; fluorescence intensity (concentration not given with the values);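 active = at least 3 SD above the mean of all compounds, about 16000 in these data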;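 note: 100 nL of 1 mM stock went into each well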
PrP 5UTR inh = suppresses PrP 5' UTR mRNA reporter expression | inhibition, % (test concentration not listed) | cell-based PrP 5' UTR mRNA reporter, plate reader | hit rate 0.35% among 340,000;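 active = every replicate at 50% or more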;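 note: 0 = median of the neutral control wells; tested in H4 reporter cells; numbers are from one replicate; inactives centre near -14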
* hit, by the source's call.

mol | Autofluor counter | PrP 5UTR inh
C#CCOCCOCCOCCNc1nc(N2CCN(C(=O)[C@H](CCCCN)n3cc(CN)nn3)CC2)nc(N2CCN(C(=O)[C@H](CC(N)=O)n3cc(C(N)[C@H](C)CC)nn3)CC2)n1 (stereo partly specified) | 4026 | -25
O=C1C=C(c2ccc(Cl)nc2)C[C@@H](c2ccc3c(c2)OCO3)C1 | 2951 | -13
COc1cc(CNC[C@H]2O[C@@H](n3cnc(C(N)=O)n3)[C@H](O)[C@@H]2O)ccc1OCc1cccc(Cl)c1 | 3519 | -5
O=C(N[C@@H]1C/C=C\C[C@@H](CC(=O)N(CCO)Cc2ccccc2)C(=O)N[C@H](Cc2ccccc2)COC1=O)OCC1c2ccccc2-c2ccccc21 | 2841 | -9
C[C@@H](O)C(C(=O)N1CCNCC1)n1cc([C@@H](N)CCCCN)nn1 (stereo partly specified) | 3566 | -15
Oc1cccc(C=NNc2ccccn2)c1 | 3728 | -13
CS(=O)(=O)CCN1CC2CCCC(C2)C1 | 3754 | -16
COc1ccc([C@H]2CC(=O)C=C(c3ccc(Br)c4ccccc34)C2)cc1 | 4191 | -18
Cn1c(N=Cc2ccc([N+](=O)[O-])cc2)c(N)c(=O)n(C)c1=O | 2877 | -31
CN(C)C/C=C/C(=O)Nc1cccc(-c2c[nH]c3ncnc(Oc4ccc(NC(=O)CC(=O)Nc5ccc(F)cc5)cc4F)c23)c1 | 4143 | -6
Cc1noc(C)c1S(=O)(=O)N(C)C[C@H]1Oc2ccc(NC(=O)C3CC3)cc2C(=O)N([C@H](C)CO)C[C@@H]1C | 3936 | -11
C[C@]12CCC(=O)C=C1C=C[C@@H]1[C@@H]2CC[C@@]2(C)[C@H]1CC[C@@]2(O)CCC(=O)O | 6827 | 2
COc1ccc(OC)c2nc3c(C(=O)NCCN(C)C)cccc3nc12 | 3076 | -36
O=C(Nc1cc([N+](=O)[O-])c2[nH]c(=O)c3ccccc3c2c1)C(F)(F)F | 2933 | 2
O=C(C1CCCCC1C(=O)N1CCCCC1)N1CCCCC1 (stereo unspecified) | 3725 | -15
CS(=O)(=O)N1CCC2CC1c1cc(-c3ccccc3)ccc12 (stereo unspecified) | 3014 | 1
CCOC(=O)C1=CC[C@H]2c3c(c4ccc(OC)cc4n3C)C(=O)C1N2S(=O)(=O)c1ccc(C)cc1 | 3780 | -17
COCc1ccccc1C1=CC(=O)C[C@H](c2ccc(OC)cc2)C1 | 4127 | 5
CCOC(=O)[C@H]1[C@H]2COc3ccc(OC)cc3[C@@H]2N2C(=O)c3cc(F)c(F)cc3NC(=O)[C@@]12C | 3110 | -2
C[C@H](CO)N1C[C@H](C)[C@@H](CN(C)Cc2ccncc2)Oc2c(NS(=O)(=O)c3cn(C)cn3)cccc2C1=O | 3902 | -15
COC(=O)[C@@]12CCCCN1[C@H](c1ccc(-c3ccc4c(c3)OCO4)c(OC)c1)[C@@H]1C(=O)N(C)C(=O)[C@@H]12 | 3909 | 5
Oc1c(Br)c(Br)c(Br)c(Br)c1Br | 4051 | -5
CC(=O)C[C@@H](O)CC(=O)[C@H]1OC(=O)CCCCCCc2ccccc21 | 4156 | -13
CC(C)(C)[C@H]1COC(=O)[C@H](NC(=O)OCC2c3ccccc3-c3ccccc32)C/C=C\C[C@@H](CC(=O)N(CCO)Cc2ccccc2)C(=O)N1 | 3026 | 10
CCCCCCCN(c1ccccc1)[C@@H]1C[C@H]2CCCC(=O)N3CC[C@@H](C1)[C@@H]23 | 3515 | -9

The final two records of the part above open the next one:
mol | Autofluor counter | PrP 5UTR inh
CC(C)(C)[C@H]1COC(=O)[C@H](NC(=O)OCC2c3ccccc3-c3ccccc32)C/C=C\C[C@@H](CC(=O)N(CCO)Cc2ccccc2)C(=O)N1 | 3026 | 10
CCCCCCCN(c1ccccc1)[C@@H]1C[C@H]2CCCC(=O)N3CC[C@@H](C1)[C@@H]23 | 3515 | -9
C#CCOCCOCCOCCNc1nc(N2CCOCC2)nc(N2CCN(C(=O)CCCCCCCCCCNC(=O)[C@@H]([C@H](C)O)n3cc(C)nn3)CC2)n1 | 2921 | -5
C[C@@H]1CN([C@H](C)CO)C(=O)c2cccc(NC(=O)NC3CCCCC3)c2O[C@@H]1CN(C)C(=O)Nc1ccc(C(F)(F)F)cc1 | 4182 | -19
C=CCC[C@H](Cc1ccc(F)cc1)C(=O)OC[C@@H]1CCCN1C(=O)[C@@H](CC=C)CC(=O)NCCO | 3360 | -16
COC(=O)CCN1CCC2CC1c1cc(-c3cccc(C)c3)ccc12 (stereo unspecified) | 3838 | -13
CC(C)C12NC(=O)NC(=O)N1CCS2 (stereo unspecified) | 2926 | -14
COC(=O)c1ccc(NCc2c(O)ccc(O)c2Br)cc1Cl | 3845 | -27
CC(CC(=O)c1ccc(F)cc1)N1CCN(c2ccccc2)CC1 (stereo unspecified) | 3558 | -18
CCN1C(=O)[C@H]2[C@@H](c3ccc(-c4ccc(F)cc4)c(OC)c3)N3CCCC[C@@]3(C(=O)OC)[C@H]2C1=O | 4418 | -4
NC(=O)c1cc([N+](=O)[O-])ccc1NCc1ccc(O)cc1 | 4059 | -12
Cn1cccc1/C=C1\SC(=S)N(NC(=O)c2ccccc2Cl)C1=O | 2454 | -15
O[C@@H]1CN(C2CCN(Cc3ccccc3)CC2)CC[C@H]1N1CCCCCC1 | 5789 | 11
CCCn1c(CCNc2nc(-c3cccc(Br)c3)cs2)nc2ccccc21 | 3588 | -8
C=CCC[C@@H](Cc1ccc(F)cc1)C(=O)OC[C@H](Cc1c[nH]c2ccccc12)NC(=O)[C@@H](CC=C)CC(=O)N(CCO)Cc1ccccc1 | 3336 | -14
Cc1c(CCO)c(=O)n2n1CCCC2 | 3692 | -25
O=C(NCc1ccccc1Br)c1cccc2c1C(=O)c1ccc(N3CCC(Cc4ccccc4)CC3)cc1S2(=O)=O | 3318 | -10
O=C(Nc1ccccc1)Nc1ccccc1 | 4075 | -46
COc1ccc(S(=O)(=O)Nc2cccc3c2O[C@H](CN(C)C(=O)NC(C)C)[C@@H](C)CN([C@H](C)CO)C3=O)cc1 | 3244 | -22
ON=C1c2ccccc2-c2ccc(F)cc21 | 3737 | -13
COC1C(O)C(C)OC(OC2C(Oc3cccc4c(O)c5c(=O)oc6ccc(C)c7c(=O)oc(c34)c5c67)OC(C)C(O)C2O)C1O (stereo unspecified) | 7736 | -16
COC(=O)C1=C(c2ccc3ccccc3c2)C[C@@H]2CC[C@H]1N2C(=O)NCc1ccc(F)cc1 | 4014 | -14
COC(C[C@H](O)C[C@H](O)[C@H](C)OCc1ccccc1)OC | 3041 | -6
Cc1ccc2c(c1)NC(=O)[C@@]1(C)[C@@H](c3ccccc3)[C@H]3COc4ccccc4[C@@H]3N1C2=O | 3693 | -24
C=CCC[C@H](Cc1ccc(F)cc1)C(=O)OC[C@@H](Cc1c[nH]c2ccccc12)NC(=O)[C@@H](CC=C)CC(=O)N(CCO)Cc1ccccc1 | 3049 | 4
Cn1cc(C2NC(=O)c3ccccc3N2)c2ccccc21 (stereo unspecified) | 3912 | -67
O=C(c1ccc(Cl)cc1)N1CCC2CC1c1cc(-c3ccccc3)ccc12 (stereo unspecified) | 4104 | -22
COc1ccccc1CNS(=O)(=O)CCNC1CC1 | 3386 | -10
CN1OC[C@@H]2CN(Cc3cc(Cl)cc(Cl)c3)[C@H](c3cccc(Br)c3)C[C@@H]21 | 3675 | -9
O=C(Nc1ccn(CCCNCCCN2CCCC2=O)c(=O)n1)OCc1ccccc1 | 3548 | -5
Cc1nnc(SCC(=O)Nc2cc(S(=O)(=O)N3CCOCC3)ccc2N2CCCC2)s1 | 3824 | -6
c1ccc2c(C3CCO3)cccc2c1 (stereo unspecified) | 4054 | -13
CCOC(=O)CCCCCC(=O)Nc1ccc2c(c1)CC(=O)N([C@@H](C)CO)C[C@H](C)[C@@H](CN(C)C(=O)Nc1ccc3c(c1)OCO3)O2 | 3456 | -17
O=C1NC(Cc2ccc(O)cc2)c2nc3ccc(F)cc3c(=O)n2-c2cc(Cl)ccc21 (stereo unspecified) | 4003 | -8
CN(/N=C/c1cccs1)c1cc(=O)n(C)c(=O)[nH]1 | 4699 | -7
COc1ccc(COC(=O)CCc2cc(OC)c(OC)c(OC)c2)cc1F | 3209 | -24
CCC(C)C1NC(=O)C(NC(=O)C(CC(C)C)N(C)C(=O)C2CCCN2C(=O)C(C)O)C(C)OC(=O)C(Cc2ccc(OC)cc2)N(C)C(=O)C2CCCN2C(=O)C(CC(C)C)NC(=O)[C@H](C)C(=O)[C@H](C(C)C)OC(=O)CC1O (stereo partly specified) | 3590 | 94*
CCN1C[C@@H]2[C@@H]3C(=O)N(C)C(=O)[C@@H]3[C@](Cc3ccccc3)(C1=O)N2C(=O)c1ccc(Cl)c(Cl)c1 | 4116 | -18
CCOC(=O)[C@@H]1[C@H]2COc3cc(OC)ccc3[C@@H]2N2C(=O)N(c3ccc(F)cc3)C(=O)[C@@]12C | 4251 | -9
CC(C)(C)OC(=O)C[C@H]1C/C=C\C[C@@H](CC(=O)N[C@H](CO)Cc2ccccc2)C(=O)NC[C@H](c2ccccc2)OC1=O | 3386 | -26
CC(=O)OC1CCC2(C)C(CCC3C2CC(=O)C2(C)C3CC(N3CC3)C2C(C)=O)C1 (stereo unspecified) | 3058 | -6
C[C@H](CO)N1C[C@H](C)[C@@H](CN(C)S(=O)(=O)c2ccccc2)Oc2ccc(NC(=O)CCC(F)(F)F)cc2C1=O | 3577 | -3
COc1cc(C2c3cc(O)c(OC)cc3CC3C(=O)OCC32)ccc1O (stereo unspecified) | 5178 | -2
COC(=O)C1=C(C)N(CC2CC2)C(=NCc2cccc(C(F)(F)F)c2)N[C@H]1c1ccccc1 | 6982 | -16
O=C(N/N=C/c1c(Cl)cccc1Cl)c1ccc(-n2cnnn2)cc1 | 3329 | -30
Cc1ccc(S(=O)(=O)N2[C@@H](c3cccc(Cl)c3)C(C(=O)O)=CC[C@H]2c2ccc(Cl)c(Cl)c2)cc1 | 2973 | -2
CC(Sc1ccc(S(=O)(=O)N2CCN(C)CC2)cn1)C(=O)Nc1cccc(Cl)c1Cl (stereo unspecified) | 3832 | -10
CC[N+]1(C)[C@@H]2CC[C@H]1CC(OC(=O)[C@H]1CCC(C(=O)OC3C[C@H]4CC[C@@H](C3)[N+]4(C)CC)(c3ccccc3)c3ccccc31)C2 (stereo partly specified) | 4633 | -11
COc1cc2c3c(c1OC)-c1cc4c(cc1CC3(C#N)N(C(=O)c1ccccc1)CC2)OCO4 (stereo unspecified) | 3099 | 4
Cc1ccc2c(c1)[C@H]1[C@H](CO2)[C@H](c2ccccc2)[C@]2(C)C(=O)Nc3cc(F)c(F)cc3C(=O)N12 | 3690 | -5
Cn1nnnc1SCC(=O)N1N=C(c2ccc(Cl)cc2)CC1c1ccco1 (stereo unspecified) | 4359 | -18
O=C(NP(=O)(N1CC1)N1CC1)c1cc(I)ccc1I | 2909 | 10

Some values from the results shown:
For PrP 5UTR inh, COc1ccc(COC(=O)CCc2cc(OC)c(OC)c(OC)c2)cc1F has -24
For PrP 5UTR inh, CC(Sc1ccc(S(=O)(=O)N2CCN(C)CC2)cn1)C(=O)Nc1cccc(Cl)c1Cl (stereo unspecified) has -10
For Autofluor counter, Cc1ccc(S(=O)(=O)N2[C@@H](c3cccc(Cl)c3)C(C(=O)O)=CC[C@H]2c2ccc(Cl)c(Cl)c2)cc1 has 2973
For PrP 5UTR inh, c1ccc2c(C3CCO3)cccc2c1 (stereo unspecified) has -13

The listing continues.
mol | Autofluor counter | PrP 5UTR inh
CC(C)N=c1scc(-c2cccs2)n1/N=C/c1ccc(O)c(O)c1O | 2187 | -23
O=[N+]([O-])c1cccc(COc2ccccc2CN2CCOCC2)c1 | 3842 | -15
COc1ccc(-c2ccc3c(c2)C2CC3CCN2S(=O)(=O)c2ccccc2C)cc1 (stereo unspecified) | 3000 | -8
S=C(S)OC1CC2CC1C1CCCC21 (stereo unspecified) | 5122 | 0
COc1cc(C(=O)N/N=C(\C)c2ccc(NC(=O)Cc3ccccc3)cc2)ccc1O | 6615 | -9
CCOC(=O)[C@]12Cc3cc4c(cc3[C@H]1N(Cc1ccccc1)C(=O)c1ccccc12)OCO4 | 2964 | -4
Cc1cccc(N2C(=O)C(Oc3ccc(Cl)cc3Cl)C2C=O)c1C (stereo unspecified) | 2572 | -17
NS(=O)(=O)c1cccc2c1c([N+](=O)[O-])cc1nc(O)c(O)nc12 | 5831 | -22
Cc1cc(-c2nc3cc(F)ccc3s2)ccc1N | 3274 | -54
CC(=O)C1CCC2C3CC=C4CC(SC(=N)N)CCC4(C)C3CCC12C (stereo unspecified) | 2874 | 3
c1ccc(C(Nc2cccnc2)c2ccccc2)cc1 | 3851 | 71*
[O-]/[N+](=C/c1ccccc1)c1ccccc1 | 2892 | -18
CCOC(=O)[C@H]1[C@H]2COc3ccccc3[C@@H]2N2C(=O)c3cc(Br)ccc3NC(=O)[C@@]12C | 4035 | -12
CCCCCCCCNS(=O)(=O)CCNCc1ccccc1 | 3949 | 4
N#Cc1ccccc1S(=O)(=O)N1CCN(Cc2c(O)ccc3ccccc23)CC1 | 2847 | -10
CC[C@@H](C)[C@@H]1CN([C@@H](C)CN2CCC[C@H]2CN2C(N)=NC[C@H]2CC(C)C)C(=N)N1CCc1ccc(Cl)c(Cl)c1 | 4358 | -4
CN(C)CCNc1ccc2nnn3c4ccc(O)cc4c(=O)c1c23 | 3740 | -11
COc1ccc([C@H]2CC(=O)C=C(c3cccc(NC(C)=O)c3)C2)cc1 | 2987 | -11
CCN1C(=O)[C@H]2[C@@H](c3ccc(-c4ccc(F)cc4)c(OC)c3)N[C@@](Cc3ccccc3)(C(=O)OC)[C@H]2C1=O | 4724 | -2
COc1cccc(C(=O)NCCCc2ccccc2)c1OC | 3925 | -13
COc1cccc2c1C(=O)c1c(O)c3c(c(O)c1C2=O)CC(O)(C(C)=NNC(=O)c1ccc(Cl)c(Cl)c1)CC3OC1CC(N)C(O)C(C)O1 (stereo unspecified) | 2791 | 81*
Oc1[nH]c2ccccc2c1N=Nc1ccccn1 | 3632 | -88
O=C(N/N=C/c1ccc(N2CCOCC2)cc1)c1ccncc1 | 3757 | -2

Source: PubChem BioAssay (several laboratories)

These rows are one share of the data, so the mix of outcomes need not match the whole.
